Rce1 inh: inhibitors of yeast Ras-converting enzyme; Q03530; yeast membranes, quenched prenylated peptide cleavage fluorescence; calls only; 290,000 compounds, 0.27% hits; AID 2563;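 active means fall in fluorescence gain of 50% or more versus controls, with final raw signal at or below 3038400; inconclusive means same 50% fall but final raw signal above 3038400; inactive means fall in fluorescence gain under 50%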;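 further: plate controls were neutral control wells for no effect and wells lacking membranes for full effect; tested at 10 µM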
Target sequence (Q03530 whole entry, looked up): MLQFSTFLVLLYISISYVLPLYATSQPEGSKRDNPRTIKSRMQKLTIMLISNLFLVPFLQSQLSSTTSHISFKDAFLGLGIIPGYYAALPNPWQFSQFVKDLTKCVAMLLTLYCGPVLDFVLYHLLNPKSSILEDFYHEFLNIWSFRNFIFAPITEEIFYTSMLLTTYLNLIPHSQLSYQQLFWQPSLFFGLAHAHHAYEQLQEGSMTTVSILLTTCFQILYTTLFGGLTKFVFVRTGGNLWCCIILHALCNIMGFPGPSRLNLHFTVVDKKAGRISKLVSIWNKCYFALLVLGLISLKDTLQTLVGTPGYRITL
UUG fidelity: modulators of start codon recognition fidelity in yeast; S. cerevisiae UUG-firefly luciferase reporter, luminescence/redox ratio; activity score, % at 18.7 µM; 350,000 compounds, 0.13% hits;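 active means replicate mean at a twofold rise or more, about +100% in these data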;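 further: firefly luciferase made from a UUG start codon reports start codon fidelity; reporter light over untreated wells divided by growth signal over untreated wells; some hits fall short of that in this replicate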
HIV Env fusion: HIV envelope-mediated fusion inhibition; 360,000 compounds, 1.1% hits; HeLa-JRFL Env/CEM21 cell fusion, luciferase; inhibition, % at 12.3 µM;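 active means mean replicate inhibition score of at least 50 and every replicate individually at or above 50; inconclusive means only one of the two criteria met; inactive means mean below 50 and not all replicates reaching 50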;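 further: 0% = plate neutral controls and 100% = maraviroc near 300 nM; one replicate is shown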
eIF4H inh: inhibitors of RNA binding by human eIF4H | Q15056 | inhibition, % at 35 µM | eIF4H fluorescence polarization binding assay | 290,000 compounds, 0.94% hits | AID 2012;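 active means 50% or more with normal probe brightness, or confirmed in later tests; inconclusive means above 50% with abnormal brightness, or retests that disagree; inactive means below 50% or failed in later tests; about a fifth of its hits are not listed in these tables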;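 further: calls also rest on retests at 20 µM and on dose response follow-up; 0% = protein and probe with vehicle and 100% = probe without protein; strong numbers were not always called active; many hits fall short of the cut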
CSC inhib: cancer stem cell inhibition. cancer stem cell-like cells viability, luminescence. inhibition, % at 7.5 µM. 300,000 compounds, 1.1% hits;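 active means mean at 75% or more and at least half the replicates too; inconclusive means mean and replicates disagree; tested in HMLE shEcad cells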;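 further: 0% = median of negative and 100% = median of positive control wells; the first replicate is given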
MT1-MMP act inh: blocks activation of human MT1-MMP. P50281. HT1080 RFP-PRO-GFP cells, GFP/RFP ratio fluorescence, overnight; percent of plate control window, DMSO zero. GFP/RFP ratio change, % at 20 µM. 360,000 compounds, 0.061% hits. AID 651647;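 active means GFP/RFP ratio change of at least 30% with cell ATP level not reduced by more than half and red fluorescence within 50% of control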; further: strong numbers were not always called active
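Material: RFP-PRO-GFP reporter HT1080 cells. Dosing: single-point 20 µM compound, 1% DMSO. Controls: DMSO and RFP-L50D-GFP cell wells. Timing: cells overnight before dosing, compound overnight, 37 °C, 5% CO2. Measure: GFP/RFP fluorescence ratio.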
PABP polyA inh: PABP-poly(A) binding inhibition. P11940. PABP-poly(A) RNA binding, fluorescence polarization. inhibition, % at 35 µM. 290,000 compounds, 1% hits;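 active means 50% or more with normal probe brightness, or confirmed in later tests; inconclusive means above 50% with abnormal brightness, or retests that disagree; inactive means below 50% or failed in later tests; about a fifth of its hits are not listed in these tables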;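 further: calls also rest on retests at 20 µM and on dose response follow-up; controls were probe without protein and protein plus probe with vehicle; some compounds called inactive have numbers as strong as hits; many hits fall short of the cut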
MT1-MMP act inh RFP: further read-out of MT1-MMP act inh, marked with its call; RFP signal change, %; measured here: RFP expression control read;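 0 = vehicle wells; hits needed this value within 50% of zero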
* = called active by the depositor; i = inactive; ? = inconclusive; . = not tested or not shown. Rows were taken by chance. Share with any hit: about 3%.

Structure	Rce1 inh	UUG fidelity	HIV Env fusion	eIF4H inh	CSC inhib	MT1-MMP act inh	MT1-MMP act inh RFP	PABP polyA inh
CCN(Cc1ccncc1)C(=O)c1cc(COc2ccc(OC)cc2Cl)on1	i	-18	-10	-11	0	-3	-6	0
COc1ccc(C(=O)N2CCc3cc(OC)c(OC)cc3C2c2ccc(OC)c(OC)c2)cc1OC (configuration not stated)	i	-6	2	2	-11	-3	1	5
O=C1C=CC(=O)N1c1ccc(Nc2ccccc2)cc1	.	-20	-6	.	.	28	16	.
CS(=O)(=O)N1CCCCC1c1cc(C(=O)NCc2ccc(Cl)c(Cl)c2)no1 (configuration not stated)	.	-6	-2	.	.	4	1	.
Cc1cccc2sc(NC(=O)CSc3cn[nH]n3)nc12	i	-13	-24	-18	-4	3	4	-5
CCN(CC)CCN(C(=O)C1=COCCO1)c1nc2ccc(C)cc2s1	i	-1	-1	-12	2	2	0	10
S=c1[nH]nc(-c2ccc(Cl)cc2Cl)n1Cc1ccccc1	i	.	19	-4	0	3	1	43
O=C(Cn1cncn1)NCc1cccc(OC(F)F)c1	i	.	-7	-2	-2	3	6	-9
CCOC(=O)c1c(-c2ccc(OC)cc2)csc1NC(=O)CNCc1ccco1	i	-17	.	6	69	5	-5	9
CCCCOc1ccc(C(=O)NCC(=O)NCCOc2ccccc2OC)cc1	.	-8	.	.	-3	1	6	.
Cc1ccc(N(CC(=O)NC(C)C)C(=O)CCC(=O)Nc2ccccn2)c(C)c1	.	2	4	.	.	-3	-2	.
Cc1c(C(=O)N2CCC(C)CC2)oc2ccc3c(c12)C(O)CC1(CCCCC1)O3 (configuration not stated)	i	-22	6	-12	12	-5	-28	9
CCOC(=O)c1c(SCC(=O)Nc2nc(C)cs2)nc(=O)[nH]c1C	i	-14	12	.	-7	2	-1	.
Cc1ccnc(NC(=O)c2ccccc2NC(=O)c2ccccc2)c1	i	0	-3	-2	7	-4	-4	-6
Cc1ccc(NC(=O)COC(=O)c2ccc(-n3nc(C)cc3C)cc2)c(F)c1	.	-16	.	.	8	3	0	.
O=S(=O)(N/N=C/c1cccnc1)c1ccc(Cl)c(Cl)c1	i	.	3	-1	-12	1	3	20
CCn1c(SCC(=O)N2CCCC2)nc2c1c(=O)n(C)c(=O)n2C	i	-6	.	-3	12	5	3	4
COc1cccc(CNC(C)C(=O)Nc2ccc3c(c2)OCCO3)c1 (configuration not stated)	i	.	-2	0	-4	-2	1	-7
COc1ccc(-c2nn(-c3ccccc3)cc2C(=O)NCC2CCCO2)cc1 (configuration not stated)	.	-2	16	-13	-6	-1	1	-14
COc1ccc(NC(=S)NNC(=O)c2ccccc2OC(F)F)cc1	i	-9	-80	12	.	0	0	5
COc1cccc2cc(-c3nnc(-c4ccccc4)o3)c(=O)oc12	.	-54	20	-4	-5	2	1	-5
CCCCCCSc1ccc([C@@H]2[C@@H]3C(=O)N(CC)C(=O)[C@@H]3[C@]3(C(=O)OC)CCCCN23)cc1OC	.	7	73*	.	52	-7	-8	.
CC1CCN(S(=O)(=O)c2cccc(-c3nnc(-c4cccnc4)o3)c2)CC1	i	-15	5	-6	-11	7	-1	-5
Cn1c(NCc2c[nH]c3ccccc23)nc2ccccc21	i	-9	.	5	.	2	3	2
CCn1c(=NC(=O)CS(=O)(=O)c2ccccc2)sc2cccc(OC)c21	i	-7	57*	.	5	-2	-13	.
Cc1ccc2c(c1)N(C(=O)CCC(=O)NCCCN(C)Cc1ccccc1)CCO2	i	-15	.	2	-4	5	5	-1
CC(C)(C)NS(=O)(=O)c1ccc(NC(=S)NC(=O)C2CC2)cc1	i	-4	9	-3	8	2	-8	1
CCOC(=O)c1ccccc1NC(=O)c1ccc(F)cc1	i	-12	.	-3	4	0	-6	-4
C/C(=N\Nc1cccc(C(F)(F)F)c1)c1ccc(O)cc1	.	8	-3	-1	47	3	-2	6
COC(=O)NNC(=O)COc1ccc2ccccc2c1Br	i	13	-12	-2	-9	-1	0	-2
Nc1ccccc1C(=O)N/N=C1\C2CN3CCN(C2)CC1(c1ccccc1)C3	i	-2	-8	1	16	-102	5	2
CCOc1ccc(C(=O)NCC(=O)Nc2ncccc2C)cc1OCC	i	-12	-9	.	-2	-2	0	.
Cc1ccc(SCCN2C(=O)NC(C)(C)C2=O)cc1	i	-23	.	-4	-4	1	-1	-4
CCOc1ccccc1-n1c(SCC(=O)N2CCOCC2)nc2ccccc2c1=O	i	-10	21	-11	.	0	-1	7
Cc1ccnc(NC(=O)CCC(=O)N(CC(=O)NCc2ccc(F)cc2)Cc2ccco2)c1	i	-9	-5	7	-6	-3	3	1
COc1ccc(C)cc1NC(=O)C1CC1c1ccccc1 (configuration not stated)	i	.	4	.	4	-5	-4	.
CC(=O)c1ccc(-n2c(CCC(=O)O)ccc2-c2ccc(Br)cc2)cc1	i	6	9	-8	-10	-4	-2	-3
CCN(CC)c1c([N+](=O)[O-])c(=O)n(C)c2ccccc12	i	.	0	-4	-4	0	-5	-10
Cc1nc(-c2ccccc2)nc2[nH]ccc(=O)c12	i	-15	-210	17	0	3	-1	-7
COC(=O)Cc1ccc(N(Cc2ccccc2F)S(=O)(=O)c2ccc(Cl)cc2)cc1	.	.	11	6	-1	-11	-6	-5
CC(NC(=O)C1CC=CCC1C(=O)O)C1CC2CCC1C2 (configuration not stated)	i	-8	-86	0	-10	0	5	2
Cc1ccc(CNC(=O)CCCOc2cc(=O)n(C)c3ccccc23)o1	i	5	-72	-4	10	8	5	-4
O=C(CSc1nc(-c2ccc(F)cc2)cs1)NCC1CCCO1 (configuration not stated)	.	.	-10	.	-6	3	-8	.
COc1ccccc1NC(=O)NCCc1ccccc1	i	-13	-21	1	21	1	0	-3
CCCCC(=O)N/N=C/c1ccc(Sc2cccc3cccnc23)o1	i	-12	.	-6	-9	-1	-5	-12
O=C(O)c1cccc2c1C(=O)c1ccccc1-2	i	.	30	0	.	0	4	7
CC(C)N(Cc1nc(-c2ccc(Cl)cc2)no1)C(=O)C12CC3CC(CC(C3)C1)C2	i	-11	.	-9	1	-1	1	9
Cc1nc(N)sc1N=Nc1ccccc1C(F)(F)F	i	-17	-104	-8	40	9	3	7
CC1=CC(=O)Nc2cncnc2N1	.	-12	-31	.	.	-2	-1	.
COc1cccc(-c2nc(CS(=O)(=O)CC(=O)Nc3cccc(C)c3C)c(C)o2)c1	i	-16	4	-7	-7	4	-3	1
C=CCOC1COC2C(OCC=C)COC12 (configuration not stated)	.	-18	-7	.	.	-4	1	.
CC(=O)Nc1ccc(S(=O)(=O)N2CCc3cc4c(cc3C2)OCCCO4)cc1	i	-13	-20	-1	3	-2	-21	8
Cc1ccc(/C=N/NC(=O)CNC(=O)c2ccc(S(=O)(=O)N(C)C)cc2)o1	i	-2	14	-2	7	-2	4	1
CCCN1C(=O)C(O)(CC(=O)c2ccc3c(c2)OCCO3)c2ccccc21 (configuration not stated)	i	-1	.	-11	7	3	6	-8
Cc1c(Cc2ccccc2)c(=O)oc2cc(OCc3ccc(C(=O)O)cc3)ccc12	i	.	-1	4	-5	0	-1	12
CSc1ccccc1OCc1cc(C(=O)NCCCc2ccccc2)no1	i	-24	.	0	5	4	2	14
CCOc1ccccc1C(=O)NCC(=O)NCC1CCCCC1	i	-6	-4	3	-10	2	-3	-8
CN1CCN(C(=O)CCNC(=O)Cn2cnc3ccccc3c2=O)CC1	i	-9	1	-5	20	3	4	0
O=C(Nc1cc(Cl)ccc1Cl)Nn1cnnc1	i	-17	-4	-4	-9	-3	1	5
C=CCN1CC2(c3ccccc3)CN(CC=C)CC(c3ccccc3)(C1)C2=O	i	.	4	2	-2	-4	3	-7

Following part
Structure	Rce1 inh	UUG fidelity	HIV Env fusion	eIF4H inh	CSC inhib	MT1-MMP act inh	MT1-MMP act inh RFP	PABP polyA inh
C=CCn1c(C)cc(C(=O)CN2NS(=O)(=O)c3ccccc3C2=O)c1C	.	.	-56	-3	0	-1	1	-2
C/C(CCc1ccco1)=N/NC(=O)CCC(=O)Nc1cccc(Cl)c1	i	-7	.	2	.	0	16	3
Cc1nc(NC(=O)c2cccs2)ccc1Br	i	.	-171	2	-14	0	-11	28
Cc1ccc(N2CC(C(=O)NC3CCSC3=O)CC2=O)cc1 (configuration not stated)	i	-15	-37	-6	7	-2	3	-14
O=[N+]([O-])c1cnn(-c2nc(-c3cccs3)cc(C(F)(F)F)n2)c1	i	-21	7	-2	-6	-1	1	-7
Cn1c(SCC(=O)Nc2ccccc2O)nnc1-c1ccco1	i	1	2	-3	4	-1	3	12
Cc1ccc(C)c(NC(=S)N(Cc2ccc(Cl)cc2)Cc2ccc(C(=O)O)cc2)c1	i	-23	16	-14	.	.	.	9
COC(=O)[C@H](Cc1ccccc1)NC(=O)Cn1cnc(C(=O)Nc2ccc(C)c(C)c2)n1	.	-3	69*	.	.	2	3	.
C[C@@H]1CN([C@@H](C)CO)C(=O)c2cc(NC(=O)CCC(F)(F)F)ccc2O[C@H]1CN(C)Cc1ccc(Cl)c(Cl)c1	.	1	-2	.	.	-6	-9	.
COc1cc(-n2c(=O)c3ccccc3n(Cc3cccc(F)c3)c2=O)cc(OC)c1OC	i	.	6	0	6	0	1	-2
CCOC(=O)N1CCN(C(=O)c2cc3c(-c4cccc(OC)c4)nn(C)c3s2)CC1	i	2	15	8	14	-6	-6	6
CC(C)(C)c1ccc(C(=O)NC(=O)CSc2n[nH]c(N)n2)cc1	.	-23	-8	.	.	5	3	.
CCOc1cccc(CN2CCN(CCCc3ccccc3)C(CCO)C2)c1O (configuration not stated)	i	1	8	-11	8	-1	0	-3
CCCCN(Cc1cc2cc(C)ccc2[nH]c1=O)C(=O)c1ccccn1	i	.	-2	-6	-3	-7	-2	-2
O=S(=O)(NCc1ccccc1)c1cccc2cccnc12	i	.	5	0	-7	3	2	-2
O=C(Nc1nc(=O)n(C(=O)c2cccc(C(F)(F)F)c2)s1)c1ccccc1	i	-24	4	-2	2	1	3	8
Cc1nc2ccc(NC(=O)/C=C/C(=O)O)cc2nc1C	i	.	-18	8	1	4	4	8
CN1Cc2c(N3CCOCC3)nc(SCCC#N)c(C#N)c2CC1(C)C	i	-9	17	?	-7	-4	2	?
CC(C)NC(=S)Nc1ccc2cn[nH]c2c1	i	.	-18	-2	-13	-3	-1	2
Cc1ccc(C)c(NC(=O)c2cc3ccccc3o2)c1	i	-23	-50	-9	9	-7	-1	-3
CC(C)N(C=O)C1(C(=O)NC2CCCCC2)CCCCC1	i	-19	-26	-6	-2	1	3	-4
CCN(CC)CCN1C(=O)c2ccccc2NC1c1ccc(C)cc1 (configuration not stated)	i	-14	13	-15	-7	-7	2	-14
CCc1nccn1CCC(=O)NC1CC(C)(C)Cc2c1cnn2-c1ccc(C)cc1 (configuration not stated)	i	-11	-3	-13	1	-5	-3	-3
CCN(CC)C(c1ccc(F)cc1)c1nnnn1C1CCCCC1 (configuration not stated)	i	2	-21	-9	-10	8	-5	39

Screening results (PubChem)
